Menin MLL FP FL – qHTS Assay for Inhibitors Targeting the Menin-MLL Interaction in MLL Related Leukemias: Competition With Fluorescein Labeled MLL-derived Peptide; 290,000 tested, under 10 active; AID 1766, 2009; FP activity change, % at 61.4 µM; Fluorescence polarization, fluorescein-MLL peptide displacement from menin; inconclusive = falling polarisation curve, or a change in total fluorescence; inactive = total fluorescence flat and polarisation flat or rising; no compound was filed as active; the % refers to the polarisation; negative = inhibition;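 also: % of control where 0% means no effect; inhibitors lower the polarisation; unlabelled MLL peptide was the positive control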
TRPML1 agonist – qHTS for Agonists of the Human Mucolipin Transient Receptor Potential 1 (TRPML1); TRPML1-expressing cells, Ca2+ dye fluorescence, FDSS; host cell line not named in the record; reference of the full effect not given here; activation, % (concentration not given with the values); actives 0.12% (n = 410,000); in the data active = activation above about 50%; inconclusive = about 30% to 50%; inactive = below about 30%; also: 0% is about no effect; the text of the record puts the active cut at 80%
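Cells: TRPML1-DL, 1X Tet inducer, ~16 h at 37 degrees C/5% CO2. Dye: ABD Ca8 no-wash + quencher, 45-90 min RT. Read: 10 s baseline, compound add, 110 s agonist phase; 54-4 EC80 (4uM final), 110 s antagonist phase.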
TRPML1 blocker – qHTS for Inhibitors of the Human Mucolipin Transient Receptor Potential 1 (TRPML1). Mucolipin-1 (Homo sapiens), Q9GZU1. TRPML1-inducible cells, Ca2+ dye fluorescence, FDSS; active compounds read low; inhibition of EC80 agonist-evoked calcium signal. activity change, negative = inhibition, % (concentration not given with the values). actives 0.02% (n = 390,000); in the data active means activity change below about -50%; inconclusive means about -30% to -50%; inactive means above about -30%;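 also: stimulus is agonist 54-4 at its EC80 concentration; % is scaled to controls: 0 for no effect and ±100 for the full control effect; the text of the record puts the active cut at -80%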
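TRPML1-DL cells, Tet-induced overnight (~16 h, 37 °C) at 1,500 cells/well, were loaded with Ca8 no-wash dye plus quencher for 45-90 min at room temperature. Compounds were pinned during FDSS kinetic reading; agonist 54-4 at EC80 (4 uM final) then added.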
PINK1 expr mod – A Quantitative High throughput Screen to Identify Chemical Modulators of PINK1 Expression; PINK1 immunofluorescence, high-content cytometry, 24 h; actives 0.2% (n = 410,000); Potency, µM (top dose mostly 76.6 µM), without a hit: at the highest dose activation (PINK1 increase), most hits filed as activators; active = well fitted activation curve with a large enough effect; inconclusive = small, poorly fitted or top-dose-only effect; inactive = flat fitted curve, though single readings scatter; cell line not stated here;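 also: potency is read from the fitted curve at half-maximal effect; % of control where 0% means no effect; nearly all actives have a fitted effect of over 65% in size; a mitochondrial uncoupler was the plate control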
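PINK1 protein, normally rapidly degraded, was detected by immunofluorescence after 24 hour compound treatment of a stable cell line. Titration data (5 concentrations) came from laser-scanning cytometry, with CCCP-treated wells as controls.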
TRPV1 potentiator – HTS Assay for Compounds that Act as Potentiators of the Vanilloid Receptor 1; actives 0.02% (n = 320,000); TRPV1-expressing cells, Fluo-8 calcium influx, capsaicin EC20 potentiation; host cell line not named in the record; control for the full effect not named in the record; potentiation, % at 8.33 µM; active means potentiation above 80%; inconclusive means 30% to 80%; inactive means below 30%; also: 0% is about no effect
Target sequence (Q8NER1 whole entry, looked up): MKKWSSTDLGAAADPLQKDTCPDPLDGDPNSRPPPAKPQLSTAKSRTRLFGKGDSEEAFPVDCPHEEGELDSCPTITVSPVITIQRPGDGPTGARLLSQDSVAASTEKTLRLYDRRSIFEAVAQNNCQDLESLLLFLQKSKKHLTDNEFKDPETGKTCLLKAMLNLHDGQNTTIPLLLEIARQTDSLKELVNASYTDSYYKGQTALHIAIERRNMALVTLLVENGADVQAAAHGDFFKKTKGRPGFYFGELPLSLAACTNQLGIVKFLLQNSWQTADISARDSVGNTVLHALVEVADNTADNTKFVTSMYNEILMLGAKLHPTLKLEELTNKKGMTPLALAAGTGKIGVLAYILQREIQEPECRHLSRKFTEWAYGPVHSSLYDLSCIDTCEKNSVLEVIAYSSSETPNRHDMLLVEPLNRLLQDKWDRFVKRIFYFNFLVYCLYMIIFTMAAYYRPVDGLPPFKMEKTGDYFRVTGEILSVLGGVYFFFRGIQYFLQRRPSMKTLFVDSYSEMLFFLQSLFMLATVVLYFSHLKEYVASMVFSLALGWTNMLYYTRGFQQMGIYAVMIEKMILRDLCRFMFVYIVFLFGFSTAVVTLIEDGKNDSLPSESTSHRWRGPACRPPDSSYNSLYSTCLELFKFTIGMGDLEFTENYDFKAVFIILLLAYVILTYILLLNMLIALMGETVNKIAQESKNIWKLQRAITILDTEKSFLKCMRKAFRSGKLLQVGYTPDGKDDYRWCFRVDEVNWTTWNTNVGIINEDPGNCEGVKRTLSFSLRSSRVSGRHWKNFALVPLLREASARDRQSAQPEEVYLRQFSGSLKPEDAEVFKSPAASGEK
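TRPV1-expressing cells were cultured overnight at 35.5C and loaded with Fluo-8 calcium dye for 40 to 90 min at room temperature. After a 10 s baseline, compound was added and calcium influx was read kinetically for 3 min (ex 480/em 520 nm).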
Sfp PPTase inh – qHTS Assay for Inhibitors of Bacillus subtilis Sfp phosphopantetheinyl transferase (PPTase) | 4'-phosphopantetheinyl transferase ffp (Bacillus subtilis), Q9F4F7 | Biochemical Sfp PPTase activity, qHTS | Potency, µM, inactives show max response, negative = inhibition, most hits filed as inhibitors | AID 1490, 2009 | actives 3.5% (n = 310,000); active = well fitted inhibition curve with a large enough effect; inconclusive = small, poorly fitted or top-dose-only effect, or another doubt; inactive = no such curve, though single readings can be large or run the other way;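 also: the enzyme is Sfp with the accession as filed and its product quenches rhodamine fluorescence; potency is read from the fitted curve at half-maximal effect; 0% = enzyme reaction without inhibitor and -100% = no enzyme wells; top concentration of the series not given in the record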
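Buffer: 50 mM Hepes-Na pH 7.6, 10 mM MgCl2, 0.01% Nonidet P-40, 0.01% BSA. Enzyme 15 nM, pre-exposed to compound 15 min; substrates then added and fluorescence change tracked over 30 min.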
ClpP mod – qHTS Assay for Activators of ClpP; actives 1.9% (n = 340,000); ATP-dependent Clp protease proteolytic subunit (Bacillus subtilis (strain 168)), P80244; purified B. subtilis ClpP, FRET peptide cleavage, 20 min; Potency, µM (top dose mostly 57.5 µM), for the others: at the highest dose activity change, negative = active; active = well fitted falling curve with a large enough effect; inconclusive = small, poorly fitted or top-dose-only effect; inactive = no such curve, though single readings can be large or run the other way; also: potency is read from the fitted curve at half-maximal effect; the source files actives as falling curves though it sought activators and does not explain the sign; nearly all actives have a fitted effect of over 65% in size; many hits overshoot -100%
Target sequence (P80244 whole entry, looked up): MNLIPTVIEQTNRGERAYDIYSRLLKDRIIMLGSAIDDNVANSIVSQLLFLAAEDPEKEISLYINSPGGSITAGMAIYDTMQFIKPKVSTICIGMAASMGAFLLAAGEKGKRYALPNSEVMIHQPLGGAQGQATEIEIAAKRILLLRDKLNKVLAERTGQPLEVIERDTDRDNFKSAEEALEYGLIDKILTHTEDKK
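Purified B. subtilis ClpP, 10 microg/mL final in Tris/HCl pH8 with KCl, BSA, glycerol and Tween-20, cleaved an Abz/nitrotyrosine-quenched decapeptide. Fluorescence (ex 320, em 430) was read at 0 and 20 min at room temperature. Delta was normalized to 5.8 microM ADEP and DMSO/no-enzyme controls.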
An asterisk follows results filed as active; [ ] = remark or other dose.

For Cc1ccc(S(=O)(=O)N(CC(=O)N2CCc3ccccc3C2)c2cccc(Cl)c2)cc1 the results were Menin MLL FP FL inconclusive, TRPML1 agonist 0.0, TRPML1 blocker -4.2, PINK1 expr mod 0.1%, TRPV1 potentiator 10.9, Sfp PPTase inh 21.9% and ClpP mod 4.8%.
For CC(=O)Nc1ccc(S(=O)(=O)N2CCC(c3nc4ccc(C)cc4[nH]3)CC2)cc1 the results were Menin MLL FP FL 3.1, TRPML1 agonist 0.1, TRPML1 blocker -11.4, PINK1 expr mod 9.4%[38.3 µM], TRPV1 potentiator 6.5, Sfp PPTase inh -5.3% and ClpP mod 0.7%.
`COc1ccccc1N(CC(=O)NCCSCc1ccccc1)S(=O)(=O)c1ccccc1` gave TRPML1 agonist 1.3, TRPML1 blocker -10.0, PINK1 expr mod 1.7% and ClpP mod 0.4%.
COc1ccc(C(=O)Nc2cccc(-c3cn4ccsc4n3)c2)c(OC)c1 was read as TRPML1 agonist 1.6, TRPML1 blocker 12.3, PINK1 expr mod 2.4% and ClpP mod -17.4%.
`COc1cccc(N2CCN(C(=S)Nc3cc(C)cc(C)c3)CC2)c1` gave Menin MLL FP FL 1.1, TRPML1 agonist -0.3, TRPML1 blocker -4.6, PINK1 expr mod 5.9%, TRPV1 potentiator -7.3 and Sfp PPTase inh 15.2%.
`COc1ccc(OCCSc2ncc(CO)n2C)cc1` gave Menin MLL FP FL 1.2, TRPML1 agonist 0.4, TRPML1 blocker 14.9, PINK1 expr mod -1.1%, TRPV1 potentiator 7.6 and Sfp PPTase inh 17.5%.
CN1CCC(N(C)S(=O)(=O)c2ccc(NC(=O)c3ccc(S(=O)(=O)N(C)C)cc3)cc2)CC1 was read as TRPML1 agonist 0.3, TRPML1 blocker 8.2, PINK1 expr mod -1.1% and ClpP mod -0.6%.
Screening O=C(Nc1ccc(F)cc1)c1ccc2nc[nH]c2c1 returned Menin MLL FP FL 1.0, TRPML1 agonist 0.0, TRPML1 blocker -0.9, PINK1 expr mod 3.8%, TRPV1 potentiator inconclusive, Sfp PPTase inh 1.5% and ClpP mod -3.5%.
For CC(C)CN1CCN(Cc2ccc(C#CC(C)(C)O)cc2)CC1CCO (stereo not drawn) the results were Menin MLL FP FL -2.1, TRPML1 agonist -0.6, TRPML1 blocker 9.6, PINK1 expr mod 0.5%, TRPV1 potentiator 3.5, Sfp PPTase inh -4.9% and ClpP mod -4.6%.
For CN1C(=O)S/C(=C\c2ccccc2OCc2ccc(C(=O)O)cc2)C1=O the results were Menin MLL FP FL -5.3, TRPML1 agonist -0.4, TRPML1 blocker 2.8, PINK1 expr mod -1.7%, TRPV1 potentiator 1.6 and Sfp PPTase inh -4.6%.
`COc1ccccc1N1CCN(C(=O)c2oc3cc(C)cc(C)c3c2C)CC1` gave Menin MLL FP FL -2.5, TRPML1 agonist 0.3, TRPML1 blocker -1.5, PINK1 expr mod -0.5%, TRPV1 potentiator 10.8, Sfp PPTase inh 2µM* and ClpP mod -1.0%.
Cc1ccc(NC(=O)C2CCN(S(=O)(=O)c3ccc4c(c3)NC(=O)C(C)S4)CC2)c(C)c1 (stereo not drawn) was read as TRPML1 agonist 1.3, TRPML1 blocker -12.6, PINK1 expr mod 1.8%, TRPV1 potentiator -26.5, Sfp PPTase inh 5.8% and ClpP mod 0.9%.
Screening Cc1cc(C)n2cc(COc3ccccc3)nc2n1 returned Menin MLL FP FL -1.1, TRPML1 agonist -0.4, TRPML1 blocker 1.9, PINK1 expr mod 0.4%, TRPV1 potentiator 3.0, Sfp PPTase inh 12.8% and ClpP mod inconclusive.
`CCCS(=O)(=O)NC(=O)C1(C)CCCN(C(=O)c2cccs2)C1` (stereo not drawn) gave TRPML1 agonist -0.3, PINK1 expr mod 0.3% and ClpP mod -1.4%.
Screening COc1ccc(S(=O)(=O)N2CCC(C(=O)Nc3cccc(Cl)c3)CC2)cc1OC returned Menin MLL FP FL 5.0, TRPML1 agonist 1.8, TRPML1 blocker 10.8, TRPV1 potentiator -4.0, Sfp PPTase inh 11.1% and ClpP mod -2.1%.
For COc1cccc(NC(=O)c2cccs2)c1 the results were Menin MLL FP FL 2.8, TRPML1 agonist 0.4, TRPML1 blocker -29.7, PINK1 expr mod 20.9%[38.3 µM], TRPV1 potentiator 28.3, Sfp PPTase inh 21.0% and ClpP mod 1.1%.
Cc1onc(-c2ccccc2)c1C(=O)O/N=C(\N)c1ccc([N+](=O)[O-])o1 was read as Menin MLL FP FL 5.0, TRPML1 agonist -0.6, TRPML1 blocker -0.2, PINK1 expr mod -0.3%, TRPV1 potentiator -1.8, Sfp PPTase inh 19.7% and ClpP mod 1.0%.
For Cc1cccc(Cl)c1NC(=O)NCCCN1CCCCC1C (stereo not drawn) the results were TRPML1 agonist -0.4, PINK1 expr mod -0.7% and ClpP mod -4.2%.
`COc1ccc(/C=N/NC(=O)c2ccc[nH]2)cc1` gave Menin MLL FP FL -0.7, TRPML1 agonist 0.1, TRPML1 blocker 9.1, PINK1 expr mod -0.7%, TRPV1 potentiator 8.2, Sfp PPTase inh 19.0% and ClpP mod -4.5%.
For COC(=O)C1C(=O)C2=C(CC1C)NC(C)=C(C(=O)OC(C)C)C2c1ccc(OC)c(O)c1 (stereo not drawn) the results were Menin MLL FP FL -3.6, TRPML1 agonist -0.2, TRPML1 blocker -4.4, PINK1 expr mod 61.9%[38.3 µM], Sfp PPTase inh -2.4% and ClpP mod -5.9%.
For O=C(Nc1cccc(S(=O)(=O)N2CCCC2)c1)c1ccc2c(c1)OCO2 the results were Menin MLL FP FL 0.9, TRPML1 agonist 0.0, TRPML1 blocker 0.9, PINK1 expr mod 6.9%, TRPV1 potentiator -2.7, Sfp PPTase inh 16.7% and ClpP mod -0.8%.
COc1ccc(-c2cc(CNc3nc(NCc4ccccc4OC)nc4ccsc34)on2)cc1 was read as TRPML1 agonist -0.5, PINK1 expr mod 3.7% and ClpP mod inconclusive.
`CSc1ccccc1NC(=O)CCn1c(=O)oc2ccccc21` gave Menin MLL FP FL -0.2, TRPML1 agonist 0.6, TRPML1 blocker -6.2, PINK1 expr mod -0.7%, TRPV1 potentiator 0.1, Sfp PPTase inh 14.1% and ClpP mod 0.1%.
For CCN(CC)c1nc(SCC(=O)O)nc(N(CC)CC)n1 the results were Menin MLL FP FL 8.6, TRPML1 agonist -1.0, TRPML1 blocker -4.3, PINK1 expr mod -7.1%[38.3 µM], TRPV1 potentiator 8.2, Sfp PPTase inh 20.2% and ClpP mod 1.6%.
For Cc1nc2cnc(N3CCN(C)CC3)nc2n(-c2ccccc2)c1=O the results were Menin MLL FP FL -1.0, PINK1 expr mod -0.7% and Sfp PPTase inh 19.9%.
`Cc1c(O)c(S(=O)c2ccccc2)c(=O)n(-c2ccccc2)c1-c1ccccc1` (stereo not drawn) gave TRPML1 agonist -0.4, TRPML1 blocker -8.8, PINK1 expr mod 1.4%, TRPV1 potentiator -12.4, Sfp PPTase inh -10.6% and ClpP mod 1.1%.
Cc1ccc(S(=O)(=O)N2CCCCC2)cc1C(=O)OCC(=O)NC(=O)NC12CC3CC(CC(C3)C1)C2 was read as Menin MLL FP FL 4.4, TRPML1 agonist 0.5, TRPML1 blocker 10.3, PINK1 expr mod 3.2%, TRPV1 potentiator -19.1, Sfp PPTase inh 7.6% and ClpP mod -0.7%.
`CCCS(=O)(=O)N1CCC(C(=O)NCCCN(C)Cc2ccccc2)CC1` gave Menin MLL FP FL 1.3, TRPML1 agonist -0.6, TRPML1 blocker -11.9, PINK1 expr mod 0.2%, TRPV1 potentiator -11.1, Sfp PPTase inh -5.1% and ClpP mod -0.5%.
`Cc1cccc(NC(=O)Cn2nnc(C(=O)NCc3cccs3)c2N)c1C` gave Menin MLL FP FL -0.3, TRPML1 agonist 1.4, TRPML1 blocker -4.1, PINK1 expr mod 1.2%, TRPV1 potentiator 3.1, Sfp PPTase inh -5.9% and ClpP mod 4.9%.
COc1ccc(CCNC(=O)CCN2C(=O)C(C)Oc3ccc(C)cc32)cc1OC (stereo not drawn) was read as Menin MLL FP FL -0.1, TRPML1 agonist -0.8, TRPML1 blocker 0.5, PINK1 expr mod 0.8%, TRPV1 potentiator -17.4, Sfp PPTase inh 12.8% and ClpP mod 1.6%.
Screening CNCc1ccccc1OCc1ccc(F)cc1 returned Menin MLL FP FL 3.4, TRPML1 agonist 1.8, TRPML1 blocker -2.7, PINK1 expr mod -1.4%, TRPV1 potentiator 7.7 and Sfp PPTase inh 13.5%.
Screening CCn1c(Cc2ccccc2)nnc1SCC(=O)Nc1ccc(S(N)(=O)=O)cc1 returned Menin MLL FP FL 1.2, TRPML1 agonist 0.5, TRPML1 blocker -7.6, PINK1 expr mod -1.2%[38.3 µM], TRPV1 potentiator 0.1, Sfp PPTase inh -2.2% and ClpP mod -0.1%.
O=C(NCc1cccs1)c1ccc2sc([C@@H]3O[C@H](CO)[C@H](O)[C@H](O)[C@H]3O)nc2c1 was read as TRPML1 agonist 0.9, TRPML1 blocker 4.9, PINK1 expr mod 0.5% and ClpP mod 1.1%.
Screening Cc1cccc(-c2nn(-c3ccccc3)cc2C(=O)Nc2cccc(S(=O)(=O)NC3=NCCC3)c2)c1 returned TRPML1 agonist 1.9, TRPML1 blocker 22.3, PINK1 expr mod 2.4%, TRPV1 potentiator 18.9 and ClpP mod -7.4%.
CCn1c2ccccc2c2cc(N)ccc21 was read as Menin MLL FP FL inconclusive, TRPML1 agonist 0.2, TRPML1 blocker -5.6, PINK1 expr mod 7.4%, TRPV1 potentiator 8.6, Sfp PPTase inh -22.1% and ClpP mod inconclusive.
Screening Cc1ccc(COc2ccc(/C=N/NC(=O)c3nnn(-c4nonc4N)c3COc3ccc(F)cc3)cc2)cc1 returned Menin MLL FP FL 0.2, TRPML1 agonist -0.4, TRPML1 blocker 4.1, PINK1 expr mod 0.7%, TRPV1 potentiator -9.4, Sfp PPTase inh -24.7% and ClpP mod -3.7%.

Assay outcomes as filed in PubChem BioAssay.
